Screens deposited in PubChem BioAssay by several laboratories.
RGS16-Gao HTS: modulators of RGS16 binding to Galphao, primary screen, biochemical, human proteins, multiplexed bead flow cytometry. Regulator of G-protein signaling 16 (Homo sapiens) + Guanine nucleotide-binding protein …. bead-based flow cytometry RGS16-Galphao binding, fluorescence; actives lie on both sides. binding response (% of control), % at 10 µM. 0.38% of 220,000 active. AID 1441, 2008;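 active means below 25% or above 175%, edge rows of some plates excepted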;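 further: Galphao activated by GDP with aluminum fluoride before binding; 100% = wells without compound and 0% = beads without RGS; some results beyond the cut were filed as inactive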
Target sequence (O15492 whole entry, looked up): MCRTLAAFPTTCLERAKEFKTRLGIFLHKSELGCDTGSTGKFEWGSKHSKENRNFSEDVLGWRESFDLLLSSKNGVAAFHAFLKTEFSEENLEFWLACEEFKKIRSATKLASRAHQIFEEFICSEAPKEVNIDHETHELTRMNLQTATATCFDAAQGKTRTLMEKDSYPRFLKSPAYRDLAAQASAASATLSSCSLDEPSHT
Target sequence (P09471 whole entry, looked up): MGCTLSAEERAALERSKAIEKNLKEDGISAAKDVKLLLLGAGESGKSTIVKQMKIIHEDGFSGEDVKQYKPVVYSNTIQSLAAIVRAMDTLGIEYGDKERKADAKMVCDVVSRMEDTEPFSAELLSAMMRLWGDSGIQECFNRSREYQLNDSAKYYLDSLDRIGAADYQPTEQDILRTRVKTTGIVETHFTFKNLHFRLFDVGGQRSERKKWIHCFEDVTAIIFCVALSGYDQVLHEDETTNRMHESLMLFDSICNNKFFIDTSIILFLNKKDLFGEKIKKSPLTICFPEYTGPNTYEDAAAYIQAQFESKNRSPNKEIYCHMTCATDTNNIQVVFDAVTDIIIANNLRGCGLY
HSV replic up: enhancers of HSV replication in host cells, fold increase, host cell viability; HSV replication augmentation in cells; maximum fold increase; 0.005% of 220,000 active;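 active means peak rise of 1.5-fold or more in the series; inconclusive means self-fluorescent or not available for retest; tested in PC3 cells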;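 further: first round at 10 µM; read as green reporter fluorescence; hits show the peak of a series up to 25 µM; 1 = signal of infected wells without compound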
Insulin prom inh: inhibitors of insulin promoter-driven GFP, primary screen, imaging, TRM-6 cells (human fetal islet line), eGFP reporter, cell count; reporter expression induced with tamoxifen; inhibition, % at 2 µM; 0.9% of 130,000 active; AID 1273, 2008;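 active means inhibition above the mean plus 3 SD, with well images judged a real hit on visual review, cut at about 60% in these data, passing the limit was not always enough; inconclusive means inhibition over the cutoff but images rejected on review; inactive means inhibition not above the cutoff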
PKD1 inh: inhibitors of human PKD1 kinase, biochemical, fluorescence polarization; inhibition, %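 (about 10 µM by stock and volumes)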; 0.056% of 200,000 active; PKD1 kinase fluorescence polarization assay; Serine/threonine-protein kinase D1 (Homo sapiens), Q15139;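 active means inhibition of 50% or more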;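 further: controls were vehicle for no effect and a reference inhibitor for full effect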
GALR2 ag: GALR2 receptor agonists, primary screen, cell-based. GALR2-expressing cells, agonist activation read-out. activation, %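 (tested at 5 µM)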. 0.48% of 140,000 active;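 active means above mean plus 3 SD of all compounds, about 5% in these data, not always enough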;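 further: 0% = vehicle buffer wells and 100% = reference agonist at full effect; tested in CHO reporter cells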
Target sequence (O43603 whole entry, looked up): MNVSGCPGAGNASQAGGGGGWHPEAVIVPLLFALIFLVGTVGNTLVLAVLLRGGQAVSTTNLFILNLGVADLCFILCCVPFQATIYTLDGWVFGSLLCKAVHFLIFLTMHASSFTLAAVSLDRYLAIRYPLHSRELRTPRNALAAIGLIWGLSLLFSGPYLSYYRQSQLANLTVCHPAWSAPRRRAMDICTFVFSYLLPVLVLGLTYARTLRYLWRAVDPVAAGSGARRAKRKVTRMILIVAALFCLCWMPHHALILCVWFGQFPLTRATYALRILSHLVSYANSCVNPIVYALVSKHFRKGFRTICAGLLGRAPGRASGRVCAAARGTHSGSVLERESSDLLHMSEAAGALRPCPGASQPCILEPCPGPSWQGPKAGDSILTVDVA
Insulin prom inh cell count: also measured in Insulin prom inh; calls as there; normalized cell count, %; measured here: cell count, toxicity; reference of the scale not given here;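 cells exposed to compound for 48 h; stained nuclei by imaging scaled within each plate; lower means fewer cells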
HSV replic up primary fold: second read-out of HSV replic up, no call of its own (marks repeat the call); fold increase; compound at 10 µM; measured here: primary screen fold increase 10 uM; tested in PC3 cells;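 GFP signal in the first replicate; 1 = infected wells without compound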
Numbers without * were called inactive; i = inactive; ? = inconclusive; . = no result given.

SMILES	RGS16-Gao HTS	HSV replic up	HSV replic up primary fold	Insulin prom inh	Insulin prom inh cell count	PKD1 inh	GALR2 ag
CCOC(=O)c1c(NC(=O)c2c(-c3ccccc3)noc2C)sc(C)c1-c1ccccc1	104	i	0.83	69	136	-11	-0.1
CCCCC(=O)Nc1nnnn1CCC	104	i	0.83	54	82	-8	-0.4
CC(=O)N1N=C(c2ccco2)CC1c1cccs1 (stereo unspecified)	94	i	0.76	11	91	-2	-2.1
C=CCN1C(=O)/C(=C/C=C2/N(CC)c3ccc(S(=O)(=O)N(C)C)cc3N2CC)SC1=S	99	?	.	.	.	-6	.
CCOc1ccc(-n2c(SCC(=O)Nc3ccc4c(c3)OCO4)nc3ccccc3c2=O)cc1	101	i	0.96	13	139	-2	0.4
COc1ccc(Cc2n[nH]c(=S)n2Cc2ccccc2)cc1Cl	93	i	0.93	11	64	2	.
CN(c1cccc(NC(=O)CN(c2ccc(Cl)c(Cl)c2)S(=O)(=O)c2ccccc2)c1)S(C)(=O)=O	106	i	0.81	-45	109	-5	-0.6
OC(COC1CCCCC1)CN1CCN(c2ccccc2)CC1 (stereo unspecified)	98	i	0.95	62	108	-5	-0.1
COc1ccc(NC(=O)CSc2nc(O)c(Cc3ccccc3)c(=O)[nH]2)cc1	99	i	0.88	55	93	4	-1.4
CCN(CC)C(C)C#CCC(c1ccccc1)c1ccccc1 (stereo unspecified)	101	i	0.82	.	.	.	.
CCOc1ccccc1NC(=O)C1CCCCN1S(=O)(=O)c1ccc(F)cc1 (stereo unspecified)	102	i	0.81	-43	149	-9	-0.9
Cc1ccc(CNC(=O)CSCc2ccc(F)cc2)cc1	99	i	0.83	29	119	-3	.
Cc1ccc(OCC(=O)NCCN2CCOCC2)cc1C	104	i	0.81	32	107	-9	-2.7
COc1ccc(NC(=O)N2CCCC(c3nc(-c4ccc(C(C)C)cc4)no3)C2)cc1 (stereo unspecified)	101	i	0.7	.	.	-2	-0.3
CCC(=O)NC(=S)Nc1cccc(-c2nc3ncccc3o2)c1	115	i	0.94	-8	93	0	0.1
COc1ccc(-c2cc3ccccc3n2CC(O)CN2CCCCC2)cc1 (stereo unspecified)	112	i	0.86	.	.	.	.
Cc1ccc(OCCn2cnc3ccccc3c2=O)c([N+](=O)[O-])c1	105	.	.	15	71	-7	0.0
Cn1c(C(=O)NCCN2CCOCC2)cc2sccc21	102	i	0.96	.	.	-4	-3.2
COc1cc(/C=C2\SC(=S)N(CC(=O)NC3=NCCS3)C2=O)cc(OC)c1OC	96	i	0.92	0	40	0	.
Cc1c(N/C=C(\Cl)C(=O)C(F)(F)F)c(=O)n(-c2ccccc2)n1C	100	i	0.98	-19	124	-10	.
CSc1ccccc1C(=O)Nc1cccc(C(C)=O)c1	84	i	0.86	-38	97	2	-0.3
COc1ccc2nc(NNC(=O)c3cc(=O)c4ccccc4o3)sc2c1	99	.	.	.	.	-6	.
Cc1ccc(NNC(=O)c2ccno2)cc1C	104	i	1	.	.	.	.
COc1cccc(CN2CCNC(=O)C2CC(=O)NCc2cn3ccc(C)cc3n2)c1OC (stereo unspecified)	85	i	1	.	.	.	.
CCNC(=S)NNc1nncc2ccccc12	100	i	0.95	0	138	3	.
CCOc1ccc(NC(=S)N2CCCN(Cc3cccc(Cl)c3)C2)cc1	99	i	0.95	10	106	-2	.
CCCC(=O)Nc1ccc(C(=O)/C=C/c2ccc(SC)cc2)cc1	103	i	0.77	.	.	7	0.0
Cc1ccc(NC(=O)CC2C(=O)NC3CCCCC3N2C(=O)c2ccc(F)cc2)cc1C (stereo unspecified)	85	i	1.1	-331	113	-2	-2.8
CCOC(=O)c1c(-c2ccc(F)cc2)csc1NC(=O)CN1C(=O)NC2(CCCCC2C)C1=O (stereo unspecified)	112	i	0.76	-33	58	0	0.3
COc1ccccc1CNC(=O)CN(c1ccc(C)cc1)S(=O)(=O)c1c(C)n[nH]c1C	89	i	0.98	.	.	11	-1.0
CS(=O)(=O)N1CCCC(C(=O)NCCN2CCC(Cc3ccccc3)CC2)C1 (stereo unspecified)	103	i	0.9	.	.	-12	-2.9
C=CCc1ccccc1OCC(O)CN1CCN(c2ccc(C)cc2)CC1 (stereo unspecified)	103	i	1	.	.	-11	-0.3
O=C(NN1C(=O)C2C3CCC(O3)C2C1=O)c1ccco1 (stereo unspecified)	98	i	0.74	17	151	-4	0.1
O=C(CSC(=S)N1CCOCC1)Nc1nccs1	95	i	1.1	.	.	.	.
Cc1cc(/C=C2\SC(=S)NC2=O)c(C)[nH]1	102	i	1.2	.	.	-7	.
O=C(COC(=O)C1COc2ccccc2O1)NC(=O)NC1CCCC1 (stereo unspecified)	101	i	0.96	.	.	-6	-1.7
O=C1CCC([N+](=O)[O-])C(c2ccc(Cl)cc2)N1 (stereo unspecified)	59	i	1	-34	106	-3	-2.4
Cc1ccccc1OCC(=O)N(CC(C)C)c1c(N)n(CC(C)C)c(=O)[nH]c1=O	97	i	1.1	.	.	.	.
Cc1cccc(N=C2NN=C(c3ccccc3F)CS2)c1C	97	i	0.97	-7	150	-9	.
CCOc1ccccc1CNC(=O)c1cc2oc3ccccc3c2n1CC	116	i	0.95	.	.	-2	-2.9
Cc1c(Nc2cc(N3CCOCC3)c3nonc3c2[N+](=O)[O-])c(=O)n(-c2ccccc2)n1C	92	i	0.96	.	.	-4	.
CCCCN=Cc1sc2ccc(OCC)cc2c1O	107	i	0.94	58	87	-3	-2.4
CC(C)c1nc2c(c(=O)n(C)c(=O)n2C)n1C	110	i	0.91	.	.	.	.
c1ccc(CSCc2cn3ccsc3n2)cc1	102	i	0.99	-11	83	1	-0.7
O=C(c1ccc(-c2ccccc2)cc1)N1CCN(C(=O)c2ccco2)CC1	90	i	0.9	.	.	-4	0.2
CCOC(=O)c1[nH]ncc1CN1CCC(Cc2ccccc2)(C(=O)OCC)CC1	102	i	0.96	.	.	.	.
S=C(Nc1ccccc1)N1CCN(c2ccc(N3CCOCC3)nn2)CC1	95	i	0.95	75*	123*	4	.
O=C(NC1CC1)c1cc2c(F)cccc2s1	99	i	0.99	.	.	-3	.
COc1ccc(NC(=O)CS(=O)CC(=O)Nc2cc(Cl)ccc2OC)cc1 (stereo unspecified)	101	i	0.81	-2	103	-10	-0.1
O=C(CSc1ccc(-c2ccccn2)nn1)NCc1ccc(F)cc1	101	i	1.3	.	.	2	.
CCCc1n[nH]c2c1C(=O)CC(C)(C)C2	100	i	0.9	43	119	14	-2.8
COc1ccc(C2=NC(c3ccccc3)CO2)cc1 (stereo unspecified)	105	i	1	15	90	-14	-2.4
COC(=O)Cn1cc(/C=N/NC(=O)c2ccc(C#N)cc2F)c2ccccc21	97	i	0.89	.	.	-20	-0.6
COc1ccc(CC(=O)Nc2cccc(-c3csc(C)n3)c2)cc1	93	i	1	7	103	-6	-1.1
C=CCn1c(CCSCc2ccccc2)n[nH]c1=S	99	i	0.96	.	.	-8	.
O=C(NCc1ccc2c(c1)OCO2)c1cccc2c1C(=O)N(C1CCCCC1)C2	100	i	0.93	.	.	-2	-0.5
C#CCOCCOCCOCCNc1nc(N2CCOCC2)nc(N2CCN(C(=O)[C@H](CCC(=O)O)n3cc(C(N)Cc4ccc(O)cc4)nn3)CC2)n1 (stereo partly specified)	97	i	0.98	.	.	2	.
Cc1ccc(N(CC(=O)Nc2ccccc2C(=O)N2CCOCC2)S(C)(=O)=O)cc1	105	i	0.69	-19	98	-3	-3.0
COc1ccc(CCNC(=O)CSCc2ccc(Cl)cc2)cc1OC	116	i	0.8	-6	137	-7	-0.4
COc1cc(NC(=O)COC(=O)c2cnc(C)cn2)c(C)cc1[N+](=O)[O-]	131	i	0.92	.	.	5	.

The list continues.
SMILES	RGS16-Gao HTS	HSV replic up	HSV replic up primary fold	Insulin prom inh	Insulin prom inh cell count	PKD1 inh	GALR2 ag
CCN(CC(=O)NCc1ccc(Cl)cc1)C(=O)/C=C/c1cccs1	94	i	1	.	.	-3	.
O=C(NC(=S)N1CCc2ccccc21)c1ccccc1Br	90	i	1.1	.	.	1	-1.2
COc1ccc(C)cc1Nc1ccc(C(=O)O)cc1[N+](=O)[O-]	102	i	0.91	.	.	2	.
O=C(NCc1ccccc1Cl)c1ccc2nc[nH]c2c1	104	i	0.94	-20	149	4	0.6
Cc1ccc(S(=O)(=O)n2nc(OC(=O)c3c(-c4ccccc4Cl)noc3C)cc2N)cc1	111	i	0.81	-14	174	-8	-1.7
COc1ccc(C2OC(=O)CC2C(=O)NC(C)C)cc1 (stereo unspecified)	111	i	0.98	.	.	-2	-1.4
O=C(c1ccc(F)cc1)c1cn[nH]c1-c1ccccc1O	87	i	0.93	-171	125	-7	-3.3
CSc1ccccc1C(=O)NCCOc1cccc(C)c1	88	i	0.94	.	.	4	.
CC(C)Nc1nc(NC(C)C)nc(N(C)C(N)=O)n1	103	i	0.71	73*	112*	3	-2.3
COc1ccccc1-c1c(C)nn2c(N3CCC(C(N)=O)CC3)cc(C)nc12	107	i	0.84	.	.	4	0.2
Cc1cc(/C(N)=N/OC(=O)Nc2ccc(Cl)cc2)no1	99	i	0.69	.	.	.	.
Cc1cc(C)c(C#N)c(SCc2nnc(-c3ccccc3)o2)n1	108	i	0.92	34	130	2	0.7
CC(C)(Oc1ccc(Cl)cc1)C(=O)N1CCN(c2ccccn2)CC1	94	i	0.99	3	93	-2	0.4
Cc1nnc(NC(=O)c2ccccc2C(=O)O)s1	99	i	0.86	-86	86	-2	-2.7
CCN(C(=O)COC(=O)c1ccccc1SCC(=O)NC1CCCCCCC1)C1CCS(=O)(=O)C1 (stereo unspecified)	104	i	0.93	-17	75	-3	-1.6
Cc1ccc(CC(NC(=O)c2ccccc2)C(=O)N2CCCC2C(=O)O)cc1 (stereo unspecified)	101	i	0.92	20	102	1	-2.4
CCC1(C)Cc2c(sc3[nH]c(=S)n(Cc4ccccc4)c(=O)c23)CO1 (stereo unspecified)	100	i	0.92	19	72	0	-1.0
CCOc1ccc(N2C(=O)CC(NCCc3ccncc3)C2=O)cc1 (stereo unspecified)	101	i	0.9	-28	91	1	-2.8
CCn1c(SCC(=O)NC2CCCC2)nnc1-c1c[nH]c2ccccc12	101	i	0.73	.	.	-2	-1.8

A stretch from further up, for reference:
SMILES	RGS16-Gao HTS	HSV replic up	HSV replic up primary fold	Insulin prom inh	Insulin prom inh cell count	PKD1 inh	GALR2 ag
CCN(CC(=O)NCc1ccc(Cl)cc1)C(=O)/C=C/c1cccs1	94	i	1	.	.	-3	.
O=C(NC(=S)N1CCc2ccccc21)c1ccccc1Br	90	i	1.1	.	.	1	-1.2
COc1ccc(C)cc1Nc1ccc(C(=O)O)cc1[N+](=O)[O-]	102	i	0.91	.	.	2	.
O=C(NCc1ccccc1Cl)c1ccc2nc[nH]c2c1	104	i	0.94	-20	149	4	0.6
Cc1ccc(S(=O)(=O)n2nc(OC(=O)c3c(-c4ccccc4Cl)noc3C)cc2N)cc1	111	i	0.81	-14	174	-8	-1.7
COc1ccc(C2OC(=O)CC2C(=O)NC(C)C)cc1 (stereo unspecified)	111	i	0.98	.	.	-2	-1.4
O=C(c1ccc(F)cc1)c1cn[nH]c1-c1ccccc1O	87	i	0.93	-171	125	-7	-3.3
CSc1ccccc1C(=O)NCCOc1cccc(C)c1	88	i	0.94	.	.	4	.
CC(C)Nc1nc(NC(C)C)nc(N(C)C(N)=O)n1	103	i	0.71	73*	112*	3	-2.3
COc1ccccc1-c1c(C)nn2c(N3CCC(C(N)=O)CC3)cc(C)nc12	107	i	0.84	.	.	4	0.2
Cc1cc(/C(N)=N/OC(=O)Nc2ccc(Cl)cc2)no1	99	i	0.69	.	.	.	.
Cc1cc(C)c(C#N)c(SCc2nnc(-c3ccccc3)o2)n1	108	i	0.92	34	130	2	0.7
CC(C)(Oc1ccc(Cl)cc1)C(=O)N1CCN(c2ccccn2)CC1	94	i	0.99	3	93	-2	0.4
Cc1nnc(NC(=O)c2ccccc2C(=O)O)s1	99	i	0.86	-86	86	-2	-2.7
CCN(C(=O)COC(=O)c1ccccc1SCC(=O)NC1CCCCCCC1)C1CCS(=O)(=O)C1 (stereo unspecified)	104	i	0.93	-17	75	-3	-1.6
Cc1ccc(CC(NC(=O)c2ccccc2)C(=O)N2CCCC2C(=O)O)cc1 (stereo unspecified)	101	i	0.92	20	102	1	-2.4
